Sfp PPTase inh – Sfp phosphopantetheinyl transferase inhibition; Q9F4F7; Biochemical Sfp PPTase activity, qHTS; Potency, µM, for the others: max response, negative = inhibition, usual class: inhibitors; actives 3.5% (n = 310,000); active means well fitted inhibition curve with a large enough effect; inconclusive means small, poorly fitted or top-dose-only effect, or another doubt; inactive means no such curve, though single readings can be large or run the other way;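 further: the enzyme is Sfp with the accession as filed and its product quenches rhodamine fluorescence; potency means the concentration at half of the fitted maximal effect; 0% = enzyme reaction without inhibitor and -100% = no enzyme wells; top concentration of the series not given in the record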
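With Hepes-Na pH 7.6 buffer containing 10 mM MgCl2, Sfp (15 nM) modified BHQ-2-YbbR (12.5 uM) using rhodamine-CoA (5 uM). Two reads 30 minutes apart at 525/598 nm yielded each well's rate.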
ClpP mod – qHTS Assay for Activators of ClpP | actives 1.9% (n = 340,000) | Potency, µM (top dose mostly 57.5 µM), inactives show at the highest dose activity change, negative = active | purified B. subtilis ClpP, FRET peptide cleavage, 20 min; active = well fitted falling curve with a large enough effect; inconclusive = small, poorly fitted or top-dose-only effect; inactive = no such curve, though single readings can be large or run the other way; further: potency means the concentration at half of the fitted maximal effect; the source files actives as falling curves though it sought activators and does not explain the sign; nearly all actives have a fitted effect of over 65% in size; many hits overshoot -100%
Target sequence (P80244 whole entry, looked up): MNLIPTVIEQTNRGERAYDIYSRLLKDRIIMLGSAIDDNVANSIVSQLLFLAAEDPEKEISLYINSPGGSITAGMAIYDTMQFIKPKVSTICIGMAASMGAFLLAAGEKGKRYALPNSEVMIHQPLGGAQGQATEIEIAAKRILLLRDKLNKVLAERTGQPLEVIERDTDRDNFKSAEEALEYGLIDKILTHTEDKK
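Buffer: 100 mM Tris/HCl pH8, 100 mM KCl, 0.05% low protease BSA, 2.5% glycerol, 0.01% Tween-20. ClpP 10 microg/mL final; 20 min RT; delta FRET normalized to ADEP and DMSO controls.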
gsp ag – gsp mutant agonism | gsp mutant cells, cAMP HTRF, 30 min; control for the full effect not named in the record | Potency, µM (top dose mostly 76.9 µM), for inactives: top-dose activation (cAMP increase), most hits filed as activators | actives 0.13% (n = 340,000); active = well fitted activation curve with a large enough effect; inconclusive = small, poorly fitted or top-dose-only effect, or another doubt; inactive = no such curve, though single readings can be large or run the other way; cell line not stated here;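 further: phosphodiesterase inhibitor Ro 20-1724 added with compounds to block cAMP breakdown; potency means the concentration at half of the fitted maximal effect; nearly all actives have a fitted effect of over 60% in size; about a fifth of the inactives were tested at one dose only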
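Cells in DMEM/10% FBS with G418 were pretreated with compounds in DMSO plus […] (300 uM stock) for 30 min at 37C. cAMP was measured by HTRF (cAMP-d2 plus anti-cAMP antibody-K) after 30 min at room temperature.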
D2 PAM – potentiates the human D2 dopamine receptor allosterically; P14416; DiscoveRx D2 beta-arrestin cells, luminescence, 90 min; 100% = 57 uM dopamine signal; potentiation, % (no concentration beside the values); actives 0.23% (n = 360,000); AID 624464; active = potentiation of 50% or more; inconclusive = 30% to 50%; inactive = 30% or less;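 further: compound concentration not given in the record; tested on top of an EC20 dose of dopamine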
Target sequence (P14416 whole entry, looked up): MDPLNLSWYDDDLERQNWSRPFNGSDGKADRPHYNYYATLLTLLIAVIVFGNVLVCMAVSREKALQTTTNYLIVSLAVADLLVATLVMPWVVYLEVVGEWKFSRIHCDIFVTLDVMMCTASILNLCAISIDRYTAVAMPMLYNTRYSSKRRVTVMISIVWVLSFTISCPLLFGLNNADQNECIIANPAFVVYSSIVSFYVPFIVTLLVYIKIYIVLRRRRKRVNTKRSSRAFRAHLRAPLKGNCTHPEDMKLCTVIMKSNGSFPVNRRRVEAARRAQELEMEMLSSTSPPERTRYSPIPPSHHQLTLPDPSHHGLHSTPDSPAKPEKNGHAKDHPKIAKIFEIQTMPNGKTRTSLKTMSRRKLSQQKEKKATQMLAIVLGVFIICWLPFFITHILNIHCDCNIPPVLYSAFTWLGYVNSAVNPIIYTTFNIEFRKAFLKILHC
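PathHunter D2 cells, attached overnight at 37 deg C, received compound in DMSO plus dopamine at EC20 (50 nM final) for 90 min at 37 deg C. Beta-arrestin recruitment was read as luminescence after 1 h with detection reagent at ambient temperature.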
TRPV1 potentiator – human TRPV1 potentiation; Q8NER1; TRPV1-expressing cells, Fluo-8 calcium influx, capsaicin EC20 potentiation; host cell line not named in the record; control for the full effect not named in the record; potentiation, % at 8.33 µM; actives 0.02% (n = 320,000); AID 540277; active means potentiation above 80%; inconclusive means 30% to 80%; inactive means below 30%; further: 0% is about no effect
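Fluo-8 calcium influx in TRPV1-expressing cells, kinetic read (ex 480/em 520 nm). Compound added and read 3 min for agonist activity, followed by capsaicin at EC20 final and 2 min further read for enhancement.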
Menin-MLL FL inh – menin-MLL binding inhibition, fluorescein peptide | Fluorescence polarization, fluorescein-MLL peptide displacement from menin | FP activity change, % at 61.4 µM | 290,000 tested, under 10 active; inconclusive = falling polarisation curve, or a change in total fluorescence; inactive = total fluorescence flat and polarisation flat or rising; no compound was filed as active; the % refers to the polarisation; negative = inhibition;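 further: % of control where 0% means no effect; inhibitors lower the polarisation; unlabelled MLL peptide was the positive control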
gsp antag – antagonists of gsp mutant (McCune-Albright syndrome); gsp-mutant cells, cAMP HTRF, 30 min; control for the full effect not named in the record; actives 0.4% (n = 340,000); Potency, µM (top dose mostly 76.9 µM), for the others: at the highest dose activity change, negative = inhibition, actives largely listed as inhibitors; active = falling curve of any shape with a large fitted effect; inconclusive = falling curve, mostly with a smaller effect; inactive = flat or rising curve; cell line not stated here;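 further: intracellular cAMP measured with PDE inhibitor Ro 20-1724 present during compound exposure; potency means the concentration at half of the fitted maximal effect; on the % scale 0 is the no-effect control and ±100 the full control effect; nearly all actives have a fitted effect of over 65% in size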
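Measurement of cellular cAMP by homogeneous time-resolved fluorescence following a 30 min compound exposure at 37C. The PDE inhibitor […] was present throughout; the assay buffer was DPBS with 0.05% BSA and 0.005% Tween 20.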
Active calls of the source: *; ? = inconclusive; nt = no result given; [ ] = remark or other dose.

Every second line gives: Sfp PPTase inh, ClpP mod, gsp ag, D2 PAM, TRPV1 potentiator, Menin-MLL FL inh, gsp antag
1: C[C@@H](C(=O)NCc1c(F)cccc1Cl)N1C(=O)N2CCc3c([nH]c4ccccc34)[C@@]2(C)C1=O
 : -4%, -1.4%, nt, -1, 0, -1.7, -24%
2: COc1cnc(-c2ccccc2)nc1Sc1ccccc1
 : -8%, nt, 21%[15.4 µM], -14, -1, 2.9, nt
3: Cn1ncc2c1NC(c1ccc(F)cc1)SCC2=O (stereo not given)
 : nt, 0.4%, -29%, -8, nt, nt, nt
4: O=C(NC1CCN(Cc2cccc([N+](=O)[O-])c2)CC1)c1ccccc1
 : -4%, -4.1%, 1%, -15, -21, -5.0, 3%
5: O=C(NC(=S)Nc1c(Cl)ccc2nsnc12)c1ccccc1F
 : -7%, -2.7%, ?, -13, -3, 1.6, -8%
6: CCCc1nc2ccccc2c(C(=O)OCC(=O)N2CCc3ccccc32)c1CC
 : ?, -5.2%, -5%, 0, 16, -1.9, -8%
7: CC(=O)N1N=C(c2cccc([N+](=O)[O-])c2)OC1c1cccc(Br)c1 (stereo not given)
 : -7%, nt, -8%[15.4 µM], -2, 24, -0.8, -12%
8: COc1ccc(NC(=O)COC(=O)CC2CCCC2)cc1Cl
 : nt, nt, 17%[15.4 µM], -38, -5, nt, 5%
9: Cc1cccc(NC(=O)CSc2nc3[nH]c(=O)cc(O)c3s2)c1
 : nt, -7.0%, 4%, 14, 7, nt, 2%
10: COc1ccc(S(=O)(=O)N(CC(=O)NCc2ccco2)c2ccc(F)cc2)cc1
 : 21%, nt, 13%[15.4 µM], -4, 14, -2.1, nt
11: O=C(C1CCN(S(=O)(=O)c2ccccc2F)CC1)N1CCCC1
 : nt, -1.6%, -31%, -9, 1, nt, 4%
12: Cc1ccc(Cc2cnc(N3C(=N)SC(C)C3=O)s2)cc1 (stereo not given)
 : 8%, -0.3%, -29%[15.4 µM], -9, -7, 3.8, -2%
13: COc1cc2c(cc1OC)C(c1ccc3c(c1)OCO3)C1=C(CC(C)(C)CC1=O)N2 (stereo not given)
 : -3%, -25%, 13%, 14, 3, -0.5, 7%
14: Cc1cc(C)c([N+](=O)[O-])cc1NC(=O)CCSc1ccccc1Cl
 : ?, -0.8%, -26%, -11, -30, 3.6, ?
15: CC(=O)NCCC(=O)Nc1cccc(S(=O)(=O)N(C)c2ccccc2)c1
 : 5%, 1.4%, -7%, -22, -8, 2.7, 5%
16: CC1(C)CC(=O)c2c(n(S(=O)(=O)c3ccccc3)c3ccc(NS(=O)(=O)c4ccccc4)cc23)C1
 : 4%, -3.0%, 43%, 0, 1, 0.0, -6%
17: Cc1ccccc1NC(=S)NCc1ccc2c(c1)OCO2
 : -13%, 1.3%, -7%, -21, 19, 0.3, -15%
18: Cc1nn(-c2ccccc2)c(Cl)c1C(=O)NNC(=O)c1ccncc1
 : nt, 0.4%, -18%, 9, ?, nt, -11%
19: Cc1ccc(-c2nnc(SCC(=O)Nc3nc4c(s3)CCCC4)n2C)cc1
 : 11%, -1.6%, 16%, -3, 1, 4.0, 0%
20: Cc1cccc(C)c1NC(=O)CNc1ncnc2sc(C)c(C)c12
 : 2%, 0.4%, 6%[15.4 µM], -10, 1, 4.4, 16%
21: CC1(C)CC(=O)C2=C(C1)OC(N)=C(C#N)C2c1ccccc1[N+](=O)[O-] (stereo not given)
 : ?, nt, 1%[15.4 µM], 3, -1, ?, -14%
22: N#Cc1c2c(nc(N)c1-c1ccccc1)CCCCC2
 : 9%, ?, -4%, 5, 6, 1.4, -1%
23: O=C(NC1CCCc2c1cnn2-c1ccc(F)cc1F)c1cnccn1 (stereo not given)
 : 12%, nt, 12%[15.4 µM], 1, -8, -0.7, 12%
24: C=CCOC(=O)/C(=C/c1cccnc1)NC(=O)c1ccccc1
 : 11%, -3.9%, -7%, 9, 5, 3.7, 6%
25: CC(=O)NC(Cc1c[nH]c2ccccc12)C(=O)OCC(=O)N1CCN(S(=O)(=O)c2ccc(Cl)cc2)CC1 (stereo not given)
 : nt, -1.1%, ?, -1, nt, nt, 1%
26: CN(CCC#N)CC(=O)Nc1ccc(NC(=O)CN(C)CCC#N)cc1
 : 7%, 0.5%, 6%, -13, -3, 4.3, 11%
27: COC(=O)C1=CNC=C(C(=O)OC)C1c1ccccc1Cl
 : 13%, ?, 22%, 7, 2, -0.7, 7%
28: Cc1ccc(C)c(C(=O)CN2Cc3ccccc3C2=O)c1
 : 14%, -2.1%, 7%[15.4 µM], -10, -38, 1.0, -2%
29: CCCCn1c(N)c(N(CCC(C)C)C(=O)c2ccccc2-n2cnnn2)c(=O)[nH]c1=O
 : nt, 28µM*, ?, 25, -9, nt, -11%
30: CC(=O)Nc1ccc(NC(=O)C2CCN(C(=O)C3CC(=O)N(c4ccc(C)cc4)C3)CC2)cc1 (stereo not given)
 : 14%, nt, ?, -3, -1, nt, 7%
31: CCOc1ccc(/C(O)=C2/C(=O)C(=O)N(c3cc(C)on3)C2c2ccc(C(=O)OC)cc2)cc1 (stereo not given)
 : ?, -3.6%, ?, -17, 10, -2.0, -26%
32: CCOC(=O)N1CCC(c2cc(=O)n3[nH]c(C)c(-c4ccc(F)cc4)c3n2)CC1
 : 19%, 4.8%, -24%, -10, ?, 2.1, -12%
33: Cn1c(SCC(=O)NCc2ccco2)nnc1-c1ccc(S(=O)(=O)N2CCOCC2)cc1
 : 12%, -0.1%, 0%, 0, 26, 1.1, -7%
34: CN(C(=O)CSc1nc2ccccc2o1)C1CCCCC1
 : nt, nt, -10%[15.4 µM], -63, -21, nt, -8%
35: O=C(CSc1nnc(Cc2ccccc2)c(=O)[nH]1)Nc1ccccc1
 : nt, 1.0%, -22%, -8, 5, nt, ?
36: NC(=O)c1cccnc1Oc1ccc(Cl)cc1
 : -27%, nt, 0%[15.4 µM], -6, 23, -0.8, 11%
37: CCOC(=O)C(=O)Nc1ccc([N+](=O)[O-])cc1OC
 : -4%, -1.6%, -14%, -9, 4, -0.6, -10%
38: NC(=O)[C@@H]1CCCNc2c(F)cc([N+](=O)[O-])cc2C(=O)N[C@@H](CO)C(=O)NCC(=O)N1
 : 24%, 0.4%, nt, -11, 15, 6.4, 8%
39: COc1cc(CCC(=O)Nc2ccc(Br)c(C(F)(F)F)c2)cc(OC)c1OC
 : 15%, ?, 0%[15.4 µM], -10, 2, 0.5, 28µM*
40: Cc1ccc(CCNC(=O)C2CCC(=O)N2C2CCCC2)cc1 (stereo not given)
 : 4%, 0.5%, -32%[inhibitor], -9, 30, -1.8, 7%
41: COc1cc(C2NC(=O)CCC2[N+](=O)[O-])cc(OC)c1OC (stereo not given)
 : -4%, -0.5%, 1%, -5, 17, -2.3, 14%
42: CC(=O)C1C(c2ccc(Br)cc2)C2C(C)=NN=C2CC1(C)O (stereo not given)
 : 10%, 0.7%, 22%, -3, -6, 2.4, -4%
43: CC(=O)Nc1ccc(S(=O)(=O)N2CCN(C)CC2)cc1
 : 17%, -3.9%, -16%, 6, -5, 2.5, 7%
44: Cc1cccc(Nc2ncnc3c2cnn3Cc2ccccc2)c1
 : -11%, -4.5%, 7%, -11, -15, 4.4, ?
45: O=C(c1ccc(OC2CCN(Cc3ccccc3O)CC2)cc1)N1CCCCC1
 : 13%, 0.7%, 20%, -11, -1, nt, 6%
46: O=C(COc1ccccc1)Nc1nc(-c2ccc(S(=O)(=O)N3CCOCC3)cc2)cs1
 : -3%, -7.9%, 8%, 14, 9, 5.1, -3%
47: c1ccc(Oc2ccc(-n3cnnn3)cc2)cc1
 : 7%, -0.5%, -37%[inhibitor], -11, -6, -2.5, 13%
48: CC1(c2ccc(Cl)cc2)NC(=O)N(CC(=O)c2ccc3c(c2)OCO3)C1=O (stereo not given)
 : 1%, -14%, 1%, 7, -8, nt, 0%
49: N#Cc1c(-c2ccccc2)cc(-c2cccs2)nc1SCC(=O)O
 : 56µM*, -2.2%, -15%[15.4 µM], -4, 5, -2.7, -17%
50: COc1cc(NS(=O)(=O)c2ccc3c(c2)NC(=O)CO3)cc(OC)c1
 : 6%, nt, -9%, 5, -14, nt, 10%

Remaining list, next part
Every second line gives: Sfp PPTase inh, ClpP mod, gsp ag, D2 PAM, TRPV1 potentiator, Menin-MLL FL inh, gsp antag
51: N=c1n(CC(=O)c2cccs2)c2ccccc2n1Cc1ccccc1
 : -19%, -2.3%, 6%, -6, -14, 0.1, 2%
52: Cc1ccc(S(=O)(=O)N(Cc2nccn2C)C(C)C)cc1
 : 11%, -1.6%, -1%, -7, -5, 1.7, 5%
53: N#CCC(=O)Nc1nc(-c2ccc3c(c2)OCCO3)cs1
 : 13%, 3.2%, -24%, 12, 0, 2.8, 3%
54: Cc1cccc(NC(=O)c2ccc(S(=O)(=O)N3CCOCC3)cc2)c1C
 : 19%, nt, -7%[15.4 µM], 3, -10, -1.7, nt
55: COc1ccc(OCc2nnc(SCC(=O)Nc3ccccc3F)o2)cc1
 : 6%, nt, -2%, -3, 11, 7.1, -10%
56: Cc1cc(C(=O)N/N=C/c2ccc([N+](=O)[O-])cc2)c2ccccc2n1
 : -9%, -2.1%, -48%[inhibitor], 1, nt, 1.2, 2%
57: Cc1cc(C)c2c(N=CN(C)C)c(C(=O)N3CCN(c4ncccn4)CC3)sc2n1
 : 15%, -1.6%, 8%, -6, 2, 0.7, -14%
58: O=C(NNC(=S)NC(=O)c1ccccc1Cl)c1cccc([N+](=O)[O-])c1
 : 17%, 0.4%, 8%[15.4 µM], -7, 21, 0.5, -4%
59: Cc1ccc(Sc2cnc3ccccc3n2)cc1
 : -9%, 0.5%, ?, -22, 9, 0.4, 40%[activator]
60: O=S(=O)(N1CCOCC1)N1CCCN(S(=O)(=O)N2CCOCC2)CC1
 : 11%, -26%, ?, -11, -24, -0.8, 7%
61: O=C1N(c2cccc(Cl)c2)C(c2ccccc2)N2CCCN12 (stereo not given)
 : 16%, 1.1%, -27%, -6, -1, 1.0, 8%

High-throughput results deposited in PubChem by National Center for Advancing Translational Sciences (NCATS).
